ID4 binder: binders of human ID4 protein | small molecule microarray, Flag-ID4 binding, fluorescence F/B | calls only | 1.2% of 31,000 active | AID 624137;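 active = spot signal over background at p below 0.07 in all four prints; compounds were printed on slides so no solution concentration is given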;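 also: a binder raises fluorescence above local background on the spot; about 2 pmol printed per array spot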
Target sequence (P47928 whole entry, looked up): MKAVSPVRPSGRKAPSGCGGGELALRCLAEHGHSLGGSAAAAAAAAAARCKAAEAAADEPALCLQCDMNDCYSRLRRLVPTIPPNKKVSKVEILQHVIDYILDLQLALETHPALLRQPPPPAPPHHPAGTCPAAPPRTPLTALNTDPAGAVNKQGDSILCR
Calls only; i = inactive. Only part of the results is shown (hit frequency here may not be typical).

SMILES | ID4 binder
CCOc1ccc(NC(=O)Cn2cc(C(=O)c3cccs3)c3ccccc32)cc1 | i
COc1c(O)cc2c(c1O)[C@H]1O[C@H](CO)[C@@H](O)[C@H](O)[C@@H]1OC2=O | i
COc1ccc(OCC(=O)Nc2cc(-c3nc4ccccc4s3)ccc2C)cc1 | i
NC(=NCc1ccccc1)NC(=O)c1nc(Cl)c(N)nc1N | i
COc1ccc2ccc(=O)oc2c1 | i
COc1ccccc1OCCNCC(O)COc1cccc2[nH]c3ccccc3c12 (stereo not drawn) | i

Among those listed so far, these contain a carbonyl joined to an NH by a bond outside any ring:
SMILES | ID4 binder
CCOc1ccc(NC(=O)Cn2cc(C(=O)c3cccs3)c3ccccc32)cc1 | i
COc1ccc(OCC(=O)Nc2cc(-c3nc4ccccc4s3)ccc2C)cc1 | i
NC(=NCc1ccccc1)NC(=O)c1nc(Cl)c(N)nc1N | i
